Mtb H37Rv: M. tuberculosis H37Rv growth inhibitors, H37Rv strain (AID 1626); M. tuberculosis H37Rv growth inhibition; higher % means a stronger effect; inhibition, % at 10 µM; hits with a dose series show IC50 in µM; 220,000 tested, 0.95% active;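 active = confirmed in a dose series; inconclusive = inhibition above 80% but not taken into the dose series; inactive = below 80% or under 30% at every dose of the series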;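 also: bacteria incubated seven days before Alamar blue readout; 0% = bacteria only wells and 100% = bacteria with antibiotic wells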
RecA splice inh: Mtb RecA intein splicing inhibition; P9WHJ3; 290,000 tested, 0.75% active; cell-free RecA intein splicing, fluorescence; inhibition, %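 (about 9 µM by stock and volumes)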; in the data active = inhibition above about 30%; inconclusive = no clear call, values can overlap the other calls;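 also: 0% = vehicle wells and 100% = reference inhibitor control wells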
Target sequence (P9WHJ3 whole entry, looked up, canonical isoform): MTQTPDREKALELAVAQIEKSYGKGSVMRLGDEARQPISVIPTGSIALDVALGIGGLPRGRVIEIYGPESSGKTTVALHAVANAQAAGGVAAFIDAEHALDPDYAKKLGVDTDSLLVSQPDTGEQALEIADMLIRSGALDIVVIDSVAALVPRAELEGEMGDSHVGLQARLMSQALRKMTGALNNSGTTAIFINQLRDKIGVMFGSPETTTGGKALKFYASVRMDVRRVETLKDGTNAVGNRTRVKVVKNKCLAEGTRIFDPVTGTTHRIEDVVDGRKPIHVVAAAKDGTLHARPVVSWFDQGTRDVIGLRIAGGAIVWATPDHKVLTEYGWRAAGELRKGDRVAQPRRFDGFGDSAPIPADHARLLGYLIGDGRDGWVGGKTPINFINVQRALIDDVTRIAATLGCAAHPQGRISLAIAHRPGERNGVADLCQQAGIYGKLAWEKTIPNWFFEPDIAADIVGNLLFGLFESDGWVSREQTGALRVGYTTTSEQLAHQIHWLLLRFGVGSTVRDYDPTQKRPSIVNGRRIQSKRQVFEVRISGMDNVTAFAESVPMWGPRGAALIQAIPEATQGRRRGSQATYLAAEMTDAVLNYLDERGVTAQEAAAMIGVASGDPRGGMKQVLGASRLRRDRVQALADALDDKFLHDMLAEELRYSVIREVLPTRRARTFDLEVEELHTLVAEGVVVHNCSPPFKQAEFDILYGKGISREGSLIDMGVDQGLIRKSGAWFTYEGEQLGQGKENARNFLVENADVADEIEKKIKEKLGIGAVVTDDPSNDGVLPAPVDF
YopH inh: YopH (Yersinia) phosphatase inhibition | AID 898 | 140,000 tested, 0.16% active | fluorescence Ex485/Em525 | inhibition, %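 (about 10 µM by stock and volumes)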;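 active = inhibition of 50% or more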;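 also: controls were vehicle for no effect and minimum signal wells for full effect; inactives centre near -20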
Arbovirus anti: arbovirus infection inhibition | inhibition, % at 10 µM | AID 1251 | 200,000 tested, 0.37% active | arbovirus infection cell-based antiviral screen;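 active = inhibition from about 30%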;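 also: bluetongue infection of BSR cells; cell survival read as ATP light after 72 h; 0% = infected wells without compound and 100% = uninfected wells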
Mtb bLac sens: beta-lactam sensitization of Mtb H37Rv; M. tuberculosis H37Rv growth with meropenem, percent inhibition; hits of this screen are not shown here; inhibition, % at 25 µM; 330,000 tested, 0.27% active; AID 434955;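 active = about 74% or more and at least 40 points above the plate without the antibiotic, then above 30% in a dose series; inconclusive = first-round hits that could not be retested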;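 also: growth measured after seven days incubation then overnight dye step; 0% = bacteria only wells and 100% = bacteria with antibiotic; twin plates without the antibiotic show which effects depend on it; some results filed as inactive read as strong as hits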
Arbovirus anti repeat: recorded beside Arbovirus anti, whose call it bears; inhibition, %; measured here: 10K subset replicate screen; many hits read low in the repeat;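 first of two repeat runs on a subset; 0% = infected and 100% = uninfected wells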
An asterisk follows results filed as active; ? = inconclusive; . = no result given; & = joins results of further samples. An excerpt; the hit share may differ from the screen's.

SMILES | Mtb H37Rv | RecA splice inh | YopH inh | Arbovirus anti | Mtb bLac sens | others
Cc1ccc(C2(C)NC(=O)N(CC(=O)Nc3ccc4c(c3)OCO4)C2=O)cc1 (configuration not stated) | -6.9% | -1.9 | -32.7 | 1.6 | ?
Cc1cccc(-c2nc3c(c(SCC(=O)N(C)C)n2)CCCC3)c1 | 19.5% | 1.1 | 37.5 | -22.7 | -1.1
COc1ccccc1N1CCN(C2CCCN(C(=O)CCn3cncn3)C2)CC1 (configuration not stated) | . | 1.4 | . | . | -6.4
COc1cccc(CN(C)CC(=O)Nc2ccccc2C(C)C)c1 | 11.4% | 2.1 | . | -11.7 | 16.2
CC(=O)c1ccc(NC(=S)N2CCCC(CO)C2)cc1 (configuration not stated) | -5.6% | -5.1 | -5.8 | -1.8 | -0.5
Cc1ccc(C)c(Cn2c3ccccc3c3cnn(CC(=O)NCCCN4CCCCC4)c(=O)c32)c1 | . | 3.0 | . | . | -0.2
Cc1ccc(-n2c(SCC(=O)OC(C)C)nnc2-c2ccncc2)cc1 | 8.8% | -0.6 | -31.4 | -1.1 | -16.5
Cc1ccc(OCCSc2nc3ccccc3n2CC(=O)O)cc1 | . | 3.3 | . | . | -3.8
CCOc1ccc(NC(=O)c2nccnc2CO)cc1 | ? | 2.8 | -44.1 | 0.5 | .
CC(=O)C1=C(O)C(=O)N(Cc2ccccc2)C1c1ccc(N(C)C)cc1 (configuration not stated) | . | -1.7 | . | . | 0.1
COc1ccccc1NC(=O)c1ccccc1NS(C)(=O)=O | 1.4% | -1.3 | -14.4 | 8.0 | -12.2
CCN1CCN(C(=O)c2ccccc2N(Cc2ccccc2)S(C)(=O)=O)CC1 | -7.3% | -0.2 | -26.5 | 13.1 | -17.3
CC(C)C(NC(=O)C1CCCCC1)C(=O)N1CCN(c2ccc(F)cc2)CC1 (configuration not stated) | -3.0% | -0.3 | -14.9 | -3.8 | ?
O=C(O)CCC/C=C\C[C@@H]1[C@@H](/C=C/[C@@H](O)COc2cccc(Cl)c2)[C@H](O)C[C@@H]1O | -2.1% | -0.9 | -43.8 | 2.2 | 96.4
O=C1c2ccccc2C(Nc2ccc(Cl)cn2)N1c1cccnc1 (configuration not stated) | 3.1% | -0.9 | -38.8 | 14.1 | -4.3
CC(=O)N1CCN(c2ccc([N+](=O)[O-])c(-n3nc(C)cc3C)c2)CC1 | 0.9% | 1.7 | -9.9 | 3.6 | 10.4
Cc1ccc(NC(=O)CSc2nnc(CNC(=O)c3ccco3)n2C)cc1C | . | 0.1 | . | . | -13.9
Cc1nc(-c2cccc(NS(C)(=O)=O)c2)cs1 | -6.0% | -1.3 | -20.3 | -2.5 | .
COc1ccc(CN(CC(=O)NC2CCCCC2)C(=O)CCCC(=O)Nc2ccccn2)cc1 | -4.0% | 0.9 | . | 5.0 | 1.5
O=C(O)c1ccccc1C(=O)N1CC=C(c2ccccc2)CC1 | -17.2% | 0.8 | -25.3 | 2.2 | -9.2
O=C(CCSc1ccc(Cl)cc1)NC1CCCCC1 | . | -1.4 | -2.6 | 1.3 | -1.5
COc1ccc2c(c1)C(=O)CCC2c1ccccc1 (configuration not stated) | . | 4.3 | . | . | 1.4
Cc1ccc(SC2CC(=O)N(c3ccc4c(c3)OCCO4)C2=O)cc1 (configuration not stated) | 1.7% | 1.7 | . | -1.0 | -2.7
COc1ccc(-n2ccnc2SCC(=O)NCc2ccco2)c(OC)c1 | -7.1% | 0.7 | . | 4.9 | -2.4
COc1cccc(NC(=S)NC(=O)/C=C/c2ccc(F)cc2)c1 | . | -3.5 | . | . | -0.5
Nc1nonc1-n1nnc(C(=O)N/N=C/c2ccncc2)c1-c1cccs1 | . | -1.2 | . | . | 8.6
O=C(CCN1C(=O)c2ccccc2S1(=O)=O)Nc1ccc(F)cc1F | . | 3.0 | . | . | -7.3
COc1cc(NC(=S)NC(=O)C(C)C)ccc1NC(=O)c1cc2ccccc2o1 | 2.5% | 0.3 | . | 3.9 | -8.3
Cc1ccc(S(=O)(=O)Nc2cnc3ccccc3c2)cc1 | -1.2% | -1.7 | . | 11.5 | 5.3
CCCc1cc(=O)oc2cc3occ(C)c3cc12 | 1.1% | -0.5 | -26.6 | 7.4 | 11.7 | Arbovirus anti repeat=5.1
CCCC(C)NC(=O)c1ccc(F)cc1 (configuration not stated) | 10.2% | 0.7 | 7.5 | -1.4 | 3.3 | Arbovirus anti repeat=-1.2
COc1ccccc1CNC(=O)COC(=O)c1cccnc1SCC(=O)NCc1ccccc1OC | -3.5% | 1.3 | . | 21.1 | -0.7
COc1ccccc1-n1cc(-c2ccc(Cl)cc2)[nH]c1=O | 2.7% | 0.4 | -13.6 | -10.7 | 0.6
Cc1cc(C)c(C#N)c(SCC(=O)NN2CC(=O)N(c3ccccc3F)CC2=O)n1 | 6.7% | 0.4 | -19.2 | 2.0 | 5.1
COc1ccccc1C(=O)NCCC(=O)NCC(c1ccc(F)cc1)N1CCOCC1 (configuration not stated) | . | -0.8 | . | . | -2.9
O=Cc1c(NC2CCCCC2)c2ccccc2[nH]c1=O | . | 0.7 | . | . | -4.8
CCOc1ccc(NC(=O)C2CC(=O)N=C(N)S2)cc1 (configuration not stated) | -10.5% | 3.7 | -5.2 | 10.7 | -10.7
Cc1ccc(C2(c3noc(CN(C)Cc4cnn(C)c4)n3)CCCC2)cc1 | 4.7% | 2.8 | . | 0.9 | 5.4
C/C(=N\NC(=O)c1ccncc1)c1cccc(NC(=O)c2ccc(C(C)(C)C)cc2)c1 | . | 1.2 | . | . | 98.2
N#C/C(=C\c1cccs1)C(=O)Nc1nccs1 | -2.6% | -4.1 | . | -1.3 | -7.4
Fc1ccccc1Nc1nc(N2CCOCC2)nc(N2CCOCC2)n1 | . | 1.0 | . | . | -0.5
CSc1nc2c(c(=O)[nH]1)C(c1ccccc1Cl)CC(=O)N2 (configuration not stated) | 0.2% | -2.2 | . | 5.5 | -0.4
COCc1cc(=O)[nH]c(-c2ccc(C(F)(F)F)cc2)n1 | 1.4% | 3.5 | . | . | -10.4
COCCNc1nc2sc3c(c2c(=O)n1Cc1ccco1)CCCCC3 | 6.1% | -0.2 | -0.3 | -15.3 | -4.8
COc1ccc(N=C2CC(C)(C)CC(=O)/C2=C(/O)c2ccccc2)cc1 | 1.9% | 1.3 | . | 5.2 | -3.8
COc1cc(NC(=O)Nc2cccc([N+](=O)[O-])c2)cc(OC)c1 | -2.6% | 0.8 | . | 10.6 | -3.8
COc1cc(OC)cc(C(=O)Nc2nc(CC(=O)NCc3ccc(F)cc3)cs2)c1 | . | 4.0 | . | . | -3.4
COc1cccc(-c2cc(C(F)(F)F)n3nc(N)nc3n2)c1 | 3.0% | 0.3 | -4.5 | -4.5 | -6.5
O=C(c1ccco1)N1CCN(C(=O)C(c2ccccc2)c2ccccc2)CC1 | -5.0% | -1.2 | -11.0 | 1.9 | -5.0
CCOC(=O)c1sc(NC(=O)/C=C/c2ccccc2)nc1C | -2.4% | 2.0 | -27.9 | -10.7 | -5.1
O=C(CSc1ncccn1)N1CCc2ccccc2C1 | -2.8% | -1.4 | . | -2.5 | -3.5
Cc1ccccc1CN1CCN(c2nc3ccccc3s2)CC1 | . | -1.0 | . | . | 3.5
Cn1ncc([N+](=O)[O-])c1C(=O)N/N=C/c1ccc(F)cc1 | 2.0% | -2.5 | -25.2 | 0.0 | 3.9
COc1ccc(NC(=O)Cn2nnc3sc4c(c3c2=O)CC(C)(C)OC4)cc1 | -4.1% | 0.0 | . | . | -0.7
Cc1ccccc1-c1nnn(CC(=O)c2ccc(S(=O)(=O)N3CCCC3)cc2)n1 | 8.1% | -0.2 | -66.3 | 9.1 | 4.3
COc1cc(OC)cc(OC(=O)C2CCN(C(=O)c3ccc(F)cc3)CC2)c1 | . | -0.6 | . | . | 41.1
N#C/C(=C\c1ccc(Cl)cc1)c1nc(-c2ccco2)cs1 | 5.6% | -5.3 | -8.9 | -12.7 | 6.3
CCN(CC)S(=O)(=O)c1ccc(NC(=O)C2COc3ccccc3O2)cc1 (configuration not stated) | -4.6% | -3.6 | -38.0 | 0.6 | 51.4
O=C(O)C(Cc1ccccc1)N1C(=O)C2CCCCC2C1=O (configuration not stated) | -4.6% | -2.3 | . | -0.2 | -5.4
O=C(Cn1nnc(-c2ccc(S(=O)(=O)N3CCCC3)cc2)n1)NCC1CCCO1 (configuration not stated) | -3.0% | 1.3 | -3.2 | 1.6 | -5.7

Of the compounds above, 3 have a cyano group.
SMILES | Mtb H37Rv | RecA splice inh | YopH inh | Arbovirus anti | Mtb bLac sens | others
Cc1cc(C)c(C#N)c(SCC(=O)NN2CC(=O)N(c3ccccc3F)CC2=O)n1 | 6.7% | 0.4 | -19.2 | 2.0 | 5.1
N#C/C(=C\c1cccs1)C(=O)Nc1nccs1 | -2.6% | -4.1 | . | -1.3 | -7.4
N#C/C(=C\c1ccc(Cl)cc1)c1nc(-c2ccco2)cs1 | 5.6% | -5.3 | -8.9 | -12.7 | 6.3

Next part
SMILES | Mtb H37Rv | RecA splice inh | YopH inh | Arbovirus anti | Mtb bLac sens | others
O=C(/C=C/c1ccccc1)NC(=S)NNC(=O)c1cnccn1 | . | 8.0 | . | . | -3.2
O=c1c(-c2nnc(SCc3ccc(Cl)cc3Cl)o2)cccn1Cc1ccccc1 | 1.9% | 2.7 | -27.2 | -16.6 | 9.8
COc1ccc(/C=C/c2nnc(NC(=O)c3ccco3)s2)cc1 | -5.5% | -1.6 | . | . | -2.4
O=C(C1CCCC1)N1CCC(CC2CC(c3ccc(Cl)cc3)=NO2)(C(=O)NCC2CCCCC2)CC1 (configuration not stated) | . | 8.3 | . | . | 19.8
COc1ccc(C2c3[nH]c4ccccc4c3CCN2Cc2ccoc2)c(F)c1 (configuration not stated) | 9.0% | 5.8 | . | -3.3 | 16.0
CCC(C)C(=O)Nn1c(C2CC2)nc2cc(OC)c(OC)cc2c1=O (configuration not stated) | -0.5% | -2.1 | . | 7.8 | -0.9
CCC(=O)Nc1ccc(C(=O)Nc2ccc3c(c2)C(=O)N(CC2CCCO2)C3=O)cc1 (configuration not stated) | 0.5% | -1.9 | 5.5 | 11.9 | 78.1
CC/C(=N\Nc1ccccc1[N+](=O)[O-])c1ccc(O)cc1 | -0.8% | 7.0 | . | 0.2 | 9.4
CC1CCCN(C(=O)N2c3ccccc3Sc3ccccc32)C1 (configuration not stated) | -2.4% | 18.2 | 7.5 | -24.5 | 0.0
O=C(c1cccnc1Cl)N(Cc1ccccc1)Cc1ccccc1 | 3.0% | 5.0 | . | -3.4 | -1.5
Cc1cc2[nH]c3ccccc3c2c(C)n1 | -0.2% | 0.0 | -15.3 | -8.6 | 1.5
O=C(NCCC(=O)N1CCc2ccccc21)c1ccco1 | . | 0.1 | . | . | 2.7
Cc1ccc(C)c(NC(=O)CCC(=O)NNC(=O)c2cccc([N+](=O)[O-])c2)c1 | -1.9% | -8.5 | 1.3 | -1.9 | -4.6
O=C(CCC(=O)N(CC(=O)NC1CCCCC1)c1ccc2c(c1)OCCO2)Nc1ccccn1 | 2.5% | 0.5 | . | 0.6 | -1.3
COc1ccccc1S(=O)Cc1ccc(C(=O)NC2CCCC2)o1 (configuration not stated) | -13.3% | -1.2 | -27.6 | 3.0 | 1.8 | Arbovirus anti repeat=2.2
CC(C)CN(C(=O)COc1ccc2ccc(=O)oc2c1)C1CCS(=O)(=O)C1 (configuration not stated) | . | -0.7 | . | . | 0.1
O=C(C1CCCN(S(=O)(=O)c2ccc(F)cc2)C1)N1CCCC1 (configuration not stated) | -10.7% | -1.9 | -25.9 | 9.8 | -12.8
CCc1ccccc1N(CC(=O)NCc1ccco1)C(=O)c1snc(C(N)=O)c1N | -1.7% | 3.8 | -8.5 | -3.6 | 0.8
Clc1ccc(-c2cn3c(n2)-c2ccccc2C3)cc1Cl | 9.5% | -6.2 | -31.6 | -3.0 | 1.2
Cc1cc(-c2cc(C(=O)Nc3ccccc3)on2)nc(NCC2CC2)n1 | -0.1% | -1.4 | . | . | -1.2
O=C(Nc1cnn(Cc2ccc(Cl)cc2)c1)C1CCCC1 | 73.8% | 0.4 | -24.2 | 2.0 | 94.2
Cc1cc2ncn(CC(C)C)c2cc1C | 3.2% | 0.1 | . | 5.5 | 8.4
CC1=CC(C)=Nc2ccc(C)cc2N1 | -4.6%&-6.8% | -40.7&-3.3 | -25.1&-7.0 | 9.1&11.9 | -4.5&-0.8
N/C(COc1ccc(Cl)cc1Cl)=N\NS(=O)(=O)c1ccccc1 | 5.0% | 3.1 | -40.6 | 1.7 | -6.2
O=C(NNC(=O)[C@H]1CC=CC[C@H]1C(=O)O)c1ccc(Cl)cc1Cl | 0.4% | 2.9 | . | 0.3 | -5.8
Cc1cc(Cl)cc(C)c1OCCCCn1ccnc1 | 9.33µM* | -2.0 | -26.2 | -13.3 | 98.6
